Source: PubChem
MLL AF4-AF9 inh: MLL-AF4/AF9 protein interaction inhibition. P42568. AlphaScreen, biotin-AF4 peptide binding to FLAG-AF9. inhibition, % at 10 µM. 0.47% of 350,000 active;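 active means every replicate reaching a set inhibition limit, whatever the replicate mean, cut at about 25% in these data; inconclusive means mean inhibition reaches that limit but some replicates miss it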;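 further: 0% = plate neutral control median and 100% = total signal loss; the record names both 10 and 1 µM as test concentration; the first replicate is given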
Target sequence (P42568 whole entry, looked up): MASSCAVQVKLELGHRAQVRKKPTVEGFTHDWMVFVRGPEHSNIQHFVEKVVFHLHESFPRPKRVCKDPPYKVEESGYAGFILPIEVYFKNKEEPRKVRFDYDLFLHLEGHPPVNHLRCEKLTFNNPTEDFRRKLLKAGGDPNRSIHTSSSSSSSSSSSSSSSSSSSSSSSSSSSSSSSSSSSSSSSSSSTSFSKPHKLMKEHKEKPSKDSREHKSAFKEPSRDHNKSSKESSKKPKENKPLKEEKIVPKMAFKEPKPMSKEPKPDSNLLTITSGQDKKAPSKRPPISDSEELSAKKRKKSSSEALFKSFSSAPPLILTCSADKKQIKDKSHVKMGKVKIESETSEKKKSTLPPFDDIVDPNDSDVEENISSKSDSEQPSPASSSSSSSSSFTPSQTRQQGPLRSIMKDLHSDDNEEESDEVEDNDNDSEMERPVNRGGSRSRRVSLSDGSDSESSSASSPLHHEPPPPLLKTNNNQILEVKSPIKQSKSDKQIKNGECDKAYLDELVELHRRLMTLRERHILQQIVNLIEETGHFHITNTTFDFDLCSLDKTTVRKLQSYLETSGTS
FGF22 binding: binders of recombinant human FGF22 by thermal shift; calls only at 9.99 µM; Q9HCT0; 1.5% of 340,000 active; SYPRO orange fluorescence; percent of sucrose octasulfate shift, DMSO zero;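 active means melting point raised past a set limit in the mean and every replicate; inconclusive means no clear call; three in four hits are not shown here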
Target sequence (Q9HCT0 whole entry, looked up): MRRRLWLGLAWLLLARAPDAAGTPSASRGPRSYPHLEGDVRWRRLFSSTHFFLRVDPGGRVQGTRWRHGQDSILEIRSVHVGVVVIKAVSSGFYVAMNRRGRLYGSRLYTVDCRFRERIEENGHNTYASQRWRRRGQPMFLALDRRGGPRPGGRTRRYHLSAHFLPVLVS
* hit, by the source's call; i = inactive; ? = inconclusive; . = not tested or not shown; + = active, no number.

FGF22 binding | MLL AF4-AF9 inh | smiles
i | -4.2 | CCCNC(=O)N(C)C[C@H]1Oc2ncc(C#C[C@H](C)O)cc2C(=O)N([C@@H](C)CO)C[C@H]1C
i | -4.3 | CN1c2ccc(-c3cccc(C#N)c3)cc2[C@@H]2[C@@H](CCN2C(=O)CN2CCOCC2)[C@H]1CO
i | 7.9 | C[C@@H]1CCCCO[C@H](CN(C)C(=O)Nc2ccc3c(c2)OCO3)[C@@H](C)CN([C@@H](C)CO)C(=O)c2cc(NC(=O)CCC(F)(F)F)ccc2O1
i | -0.3 | CO[C@H]1CN(C)C(=O)c2cc(NC(=O)C3CC3)ccc2OC[C@@H](C)N(Cc2nccs2)C[C@H]1C
i | 1.2 | C[C@@H]1CCCCO[C@@H](CN(C)S(=O)(=O)c2cn(C)cn2)[C@@H](C)CN([C@@H](C)CO)C(=O)c2cc(NS(=O)(=O)c3ccccc3)ccc2O1
i | -0.8 | C[C@@H]1CN([C@@H](C)CO)C(=O)Cc2cc(NC(=O)Cc3ccccc3)ccc2O[C@@H]1CN(C)Cc1ccccc1
i | -7.5 | O=C(NCC1CC1)[C@@H]1[C@@H](CO)[C@@H]2Cn3c(ccc(/C=C/c4ccccc4)c3=O)[C@H]1N2C(=O)C1CC1
i | -0.6 | Cc1noc(C)c1NC(=O)N(C)C[C@H]1Oc2ccc(NC(=O)Nc3ccccc3)cc2CC(=O)N([C@@H](C)CO)C[C@H]1C
i | 2.2 | O=C(Nc1cccc(Cl)c1)N[C@H]1CC[C@H](CCNC(=O)C2CCCCC2)O[C@@H]1CO
. | -0.2 | C=CCN=C1NC(CCc2ccccc2)C(C(=O)OC)=C(C)N1C (configuration not stated)
i | 1.6 | C[C@@H]1CN([C@H](C)CO)C(=O)c2cc(NC(=O)Nc3ccc(F)cc3)ccc2O[C@H]1CN(C)S(=O)(=O)c1ccccc1
i | 8.8 | O=C(NCC1CCCCC1)[C@H]1[C@H](CO)[C@H]2Cn3c(ccc(-c4ccccc4F)c3=O)[C@@H]1N2
i | -1.4 | C[C@@H]1CN([C@H](C)CO)C(=O)c2cc(NS(=O)(=O)c3cccs3)ccc2O[C@@H](C)CCCCO[C@H]1CN(C)C(=O)NC1CCCCC1
i | -1.1 | C[C@@H]1CN([C@@H](C)CO)C(=O)CCCn2cc(nn2)CO[C@H]1CN(C)CC1CCCCC1
i | 0.1 | CC(C)NC(=O)Nc1ccc2c(c1)C(=O)N([C@H](C)CO)C[C@@H](C)[C@@H](CN(C)S(=O)(=O)c1ccc(F)cc1)O2
i | -15 | Cc1ccccc1S(=O)(=O)N1C[C@@H](O)COC[C@H]2O[C@H](CC(=O)O)CC[C@@H]21
i | -3.5 | Cc1ccccc1-c1ccc2c(c1)O[C@@H](CN(C)C(=O)Nc1ccc(C(F)(F)F)cc1)[C@@H](C)CN([C@@H](C)CO)S2(=O)=O
i | -1.6 | O=C(C[C@H]1CC[C@@H](NC(=O)c2cccnc2)[C@H](CO)O1)NCc1ccncn1
i | 19 | COc1ccc(CN(C)C[C@@H]2OCCCC[C@H](C)Oc3ccc(NC(=O)Nc4ccc(F)cc4)cc3C(=O)N([C@@H](C)CO)C[C@@H]2C)cc1
i | -2.8 | CN(C)CC(=O)N1[C@@H](CO)[C@@H](c2ccccc2)C12CN(Cc1cccnc1)C2
i | -0.6 | CO[C@H]1CN(C)C(=O)c2ccc(NS(C)(=O)=O)cc2OC[C@@H](C)N(C(=O)C2CC2)C[C@H]1C
i | -3.5 | CC(C)NC(=O)N(C)C[C@H]1Oc2ncc(C#CC3CC3)cc2C(=O)N([C@@H](C)CO)C[C@@H]1C
i | -0.5 | O=S(=O)(c1ccccc1)N1C[C@@H]2[C@H](c3ccccc31)[C@H](CO)N2Cc1ccc(F)cc1
i | 0.5 | Cc1noc(C)c1NC(=O)NCC[C@@H]1CC[C@H](NC(=O)Cc2cccnc2)[C@H](CO)O1
i | -1.4 | COc1ccc(NC(=O)Nc2ccc3c(c2)C(=O)N([C@@H](C)CO)C[C@H](C)[C@H](CN(C)C(=O)Nc2ccccc2)O3)cc1

Fetched one by one from the entries so far:
FGF22 binding | MLL AF4-AF9 inh | smiles
i | -1.6 | O=C(C[C@H]1CC[C@@H](NC(=O)c2cccnc2)[C@H](CO)O1)NCc1ccncn1
i | 0.5 | Cc1noc(C)c1NC(=O)NCC[C@@H]1CC[C@H](NC(=O)Cc2cccnc2)[C@H](CO)O1
i | -0.3 | CO[C@H]1CN(C)C(=O)c2cc(NC(=O)C3CC3)ccc2OC[C@@H](C)N(Cc2nccs2)C[C@H]1C

(further entries)
FGF22 binding | MLL AF4-AF9 inh | smiles
i | 1.6 | CN(C)c1ccc2c(c1)[C@@H]1C[C@@H](CC(=O)NCc3cc(F)ccc3F)O[C@@H](CO)[C@@H]1O2
i | -2.5 | C[C@@H]1CN([C@@H](C)CO)C(=O)c2cc(-c3ccccc3F)cnc2O[C@@H]1CN(C)C(=O)NC1CCCCC1
i | -9.3 | COc1ccccc1-c1cn(CC[C@@H]2CC[C@@H](NS(=O)(=O)c3ccccc3C)[C@H](CO)O2)nn1
i | -1.1 | COc1ccc(-c2cnc3c(c2)C(=O)N([C@H](C)CO)C[C@H](C)[C@H](CN(C)S(=O)(=O)c2ccc(C)cc2)O3)cc1
i | -0.1 | C[C@H]1CN([C@@H](C)CO)C(=O)c2cc(NS(=O)(=O)c3cccs3)ccc2O[C@H]1CN(C)Cc1ccc(C(=O)Nc2ccccc2N)cc1
i | -1.4 | CCCC(=O)Nc1ccc2c(c1)C(=O)N(C)C[C@@H](OC)[C@H](C)CN(CCC)[C@@H](C)CO2
+ | -15 | CC(=O)N(C)C[C@@H]1Oc2ncc(C#CC(C)(C)O)cc2C(=O)N([C@@H](C)CO)C[C@H]1C
i | -1.9 | C[C@@H]1CCCCO[C@H](CN(C)C(=O)CCCN(C)C)[C@@H](C)CN([C@H](C)CO)C(=O)c2cc(NS(=O)(=O)c3ccccc3)ccc2O1
i | 0.1 | CO[C@H]1CC[C@@H]2CCN(C)C(=O)[C@H](C)[C@@H](OC)CN(C)C(=O)c3cccc(C#N)c3OC[C@@H]1O2
i | -14 | CNC[C@@H]1Oc2ccc(NS(=O)(=O)c3ccc(F)cc3)cc2CC(=O)N([C@H](C)CO)C[C@@H]1C
i | -2.2 | O=S(=O)(N[C@H]1CC[C@H](CCn2cc(C3(O)CCCC3)nn2)O[C@@H]1CO)c1ccccc1
i | -0.2 | CCC(=O)N1C[C@H](C)[C@@H](OC)CN(C)C(=O)c2ccc(NC(=O)C3CCCCC3)cc2OC[C@H]1C
i | -1.7 | CO[C@H]1CN(C)C(=O)c2cc(NC(=O)C3CCCC3)ccc2OC[C@H](C)N(C)C[C@H]1C
i | -0.3 | O=C(N[C@@H]1CC[C@H](CCn2cc(-c3ccc(F)cc3)nn2)O[C@@H]1CO)c1cnccn1
i | -16 | CCC(=O)N1CC(=O)N2[C@H](CO)[C@H](c3ccc(C#Cc4cccnc4)cc3)[C@H]2C1
i | -1.7 | Cc1noc(C)c1S(=O)(=O)Nc1ccc2c(c1)CC(=O)N([C@@H](C)CO)C[C@H](C)[C@@H](CN(C)Cc1ccncc1)O2
i | ? | COCC(=O)Nc1ccc2c(c1)C(=O)N(C)C[C@@H](OC)[C@H](C)CN(Cc1ccccc1F)[C@@H](C)CO2
i | 1.1 | C[C@@H]1CN([C@@H](C)CO)C(=O)c2cc(NC(=O)CCC(F)(F)F)ccc2O[C@@H]1CN(C)Cc1ccc(Cl)c(Cl)c1
i | -15 | CO[C@@H]1CN(C)C(=O)c2cc(NC(=O)Nc3ccccc3F)ccc2OC[C@H](C)NC[C@H]1C
i | -9.3 | CCCN1[C@@H]2c3ccc(/C=C/c4ccccc4)c(=O)n3C[C@@H]2[C@@H](CO)[C@@H]1C(=O)NCC1CC1
i | 0.2 | CCN(CC)C(=O)c1ncn2c1C(=O)NC[C@H]2C
i | 2.0 | C[C@@H]1CN([C@@H](C)CO)S(=O)(=O)c2ccc(C3=CCCC3)cc2O[C@H]1CN(C)Cc1ccccn1
i | 1.2 | CCC(=O)N(C)C[C@H]1Oc2cc(C#Cc3ccccc3)ccc2S(=O)(=O)N([C@@H](C)CO)C[C@H]1C
i | -17 | C[C@@H]1CCCCO[C@@H](CN(C)S(=O)(=O)c2cn(C)cn2)[C@H](C)CN([C@@H](C)CO)C(=O)c2cc(NS(=O)(=O)c3ccc(Cl)cc3)ccc2O1
i | -9.2 | C[C@@H]1CN([C@H](C)CO)C(=O)c2cc(C3=CCCCC3)cnc2O[C@@H]1CN(C)C(=O)Nc1cccc(F)c1

Remaining list, next part
FGF22 binding | MLL AF4-AF9 inh | smiles
i | 4.8 | C[C@@H]1CCCCO[C@@H](CN(C)C(=O)C2CCCCC2)[C@@H](C)CN([C@@H](C)CO)C(=O)c2cc(NC(=O)Nc3ccc(F)cc3)ccc2O1
i | -2.2 | CCC(=O)Nc1ccc2c(c1)OC[C@@H](C)N(Cc1cncnc1)C[C@H](C)[C@H](OC)CN(C)C2=O
i | 2.9 | COc1ccc(NC(=O)Nc2ccc3c(c2)C(=O)N([C@H](C)CO)C[C@H](C)[C@H](CN(C)C(=O)Cc2ccccc2)OCCCC[C@H](C)O3)cc1
i | 1.1 | C[C@@H]1CN([C@@H](C)CO)C(=O)c2cccc(NC(=O)c3ccncc3)c2O[C@H]1CN(C)C(=O)Nc1ccc(C(F)(F)F)cc1
i | -1.1 | Cc1ccc(S(=O)(=O)Nc2ccc3c(c2)CC(=O)N([C@@H](C)CO)C[C@@H](C)[C@H](CN(C)C(=O)Nc2cccc4ccccc24)O3)cc1
i | -1.7 | C[C@@H]1CCCCO[C@H](CN(C)C(=O)Nc2ccc3c(c2)OCO3)[C@@H](C)CN([C@H](C)CO)C(=O)c2cc(NS(=O)(=O)c3cccs3)ccc2O1
i | -2.3 | Cc1noc(C)c1S(=O)(=O)Nc1ccc2c(c1)C(=O)N([C@@H](C)CO)C[C@H](C)[C@@H](CN(C)C(=O)Nc1ccc3c(c1)OCO3)O2
i | -1.7 | CCS(=O)(=O)Nc1ccc2c(c1)C(=O)N(C)C[C@@H](OC)[C@@H](C)CN(C(=O)NC(C)C)[C@@H](C)CO2
i | -1.0 | CCCC#Cc1cnc2c(c1)C(=O)N([C@H](C)CO)C[C@H](C)[C@@H](CN(C)S(=O)(=O)c1ccccc1)O2
i | 2.0 | CO[C@H]1CC[C@H]2CCOc3ccc(C#N)cc3C(=O)N(C)C[C@@H](C)C(=O)N(C)C[C@@H]1O2
i | -3.3 | CCCNC(=O)N1C[C@H](C)[C@@H](OC)CN(C)C(=O)c2cc(NC(=O)CCC)ccc2OC[C@@H]1C
i | 0.0 | COc1ccc(S(=O)(=O)N2CC[C@@H]3[C@H]2c2cc(C#Cc4cccc(OC)c4)ccc2N[C@@H]3CO)cc1
i | -2.9 | CC(C)NC(=O)Nc1ccc2c(c1)C(=O)N([C@@H](C)CO)C[C@@H](C)[C@H](CN(C)C(=O)CCC(F)(F)F)OCCCC[C@H](C)O2
i | -2.3 | C[C@H](CO)N1C[C@H](C)[C@H](CN(C)Cc2ccc(C(=O)O)cc2)Oc2ccc(NC(=O)CCC(F)(F)F)cc2CC1=O
i | -2.5 | COc1ccccc1-c1ccccc1[C@H]1[C@@H](C#N)N(C(=O)C2CC2)[C@@H]1CO
i | -2.8 | COc1ccc(S(=O)(=O)Nc2ccc3c(c2)C(=O)N([C@H](C)CO)C[C@H](C)[C@H](CN(C)S(=O)(=O)c2cn(C)cn2)O3)cc1
i | -8.6 | O=C(C[C@H]1CC[C@H]2[C@@H](COC[C@H](O)CN2C(=O)Nc2cccc(F)c2)O1)NCc1ccccc1F
i | -2.6 | CCC(=O)N[C@H]1CC[C@@H](CC(=O)NCc2cc(F)cc(F)c2)O[C@H]1CO
i | -1.1 | O=C(C[C@H]1CC[C@@H]2[C@H](COC[C@@H](O)CN2S(=O)(=O)c2cccc(F)c2)O1)NCCCN1CCOCC1
i | -2.0 | O=C(c1ccccc1)N1CC[C@H]2[C@H](CO)Nc3ccc(C#Cc4cccnc4)cc3[C@H]21
i | -4.1 | CCC(=O)Nc1ccc2c(c1)OC[C@@H](C)N(C(=O)Cc1ccccn1)C[C@@H](C)[C@@H](OC)CN(C)C2=O
i | -1.0 | C[C@@H]1CN([C@H](C)CO)C(=O)Cc2cc(NC(=O)CCC(F)(F)F)ccc2O[C@@H]1CN(C)C
i | -26 | CO[C@H]1CN(C)C(=O)c2ccc(NC(=O)C3CC3)cc2OC[C@@H](C)N(C)C[C@H]1C
i | -0.6 | Cc1noc(C)c1NC(=O)N(C)C[C@H]1Oc2ccc(NS(=O)(=O)c3ccc(F)cc3)cc2C(=O)N([C@@H](C)CO)C[C@H]1C
i | -2.9 | COc1ccccc1-c1ccc2c(c1)[C@@H]1[C@@H](CCN1C(=O)C1CCOCC1)[C@@H](CO)N2
i | 0.7 | COc1ccc(C#Cc2ccc3c(c2)O[C@@H](CN(C)C(=O)Nc2cccc(OC)c2)[C@@H](C)CN([C@@H](C)CO)S3(=O)=O)cc1
i | -6.7 | C[C@H]1CN([C@@H](C)CO)C(=O)c2cccc(NC(=O)Nc3cccc4ccccc34)c2O[C@@H]1CN(C)S(=O)(=O)c1cn(C)cn1

Whole records from above. Order of screens: FGF22 binding	MLL AF4-AF9 inh
COc1ccc(C#Cc2ccc3c(c2)O[C@@H](CN(C)C(=O)Nc2cccc(OC)c2)[C@@H](C)CN([C@@H](C)CO)S3(=O)=O)cc1 in the list: i	0.7
CCCNC(=O)N1C[C@H](C)[C@@H](OC)CN(C)C(=O)c2cc(NC(=O)CCC)ccc2OC[C@@H]1C in the list: i	-3.3
COc1ccccc1-c1ccc2c(c1)[C@@H]1[C@@H](CCN1C(=O)C1CCOCC1)[C@@H](CO)N2 in the list: i	-2.9
CCC(=O)N[C@H]1CC[C@@H](CC(=O)NCc2cc(F)cc(F)c2)O[C@H]1CO in the list: i	-2.6
C[C@@H]1CCCCO[C@@H](CN(C)C(=O)C2CCCCC2)[C@@H](C)CN([C@@H](C)CO)C(=O)c2cc(NC(=O)Nc3ccc(F)cc3)ccc2O1 in the list: i	4.8

Some of the compounds tested (hit frequency here may not be typical).
